# TRPV1 potentiator: enhances activation of the human vanilloid receptor TRPV1 | TRPV1-expressing cells, Fluo-8 calcium influx, capsaicin EC20 potentiation; host cell line not named in the record; control for the full effect not named in the record | AID 540277 | hit rate 0.02% among 320,000 | potentiation, % at 8.33 µM | Q8NER1; active means potentiation above 80%; inconclusive means 30% to 80%; inactive means below 30%; note: 0% is about no effect
# Target sequence (Q8NER1 whole entry, looked up): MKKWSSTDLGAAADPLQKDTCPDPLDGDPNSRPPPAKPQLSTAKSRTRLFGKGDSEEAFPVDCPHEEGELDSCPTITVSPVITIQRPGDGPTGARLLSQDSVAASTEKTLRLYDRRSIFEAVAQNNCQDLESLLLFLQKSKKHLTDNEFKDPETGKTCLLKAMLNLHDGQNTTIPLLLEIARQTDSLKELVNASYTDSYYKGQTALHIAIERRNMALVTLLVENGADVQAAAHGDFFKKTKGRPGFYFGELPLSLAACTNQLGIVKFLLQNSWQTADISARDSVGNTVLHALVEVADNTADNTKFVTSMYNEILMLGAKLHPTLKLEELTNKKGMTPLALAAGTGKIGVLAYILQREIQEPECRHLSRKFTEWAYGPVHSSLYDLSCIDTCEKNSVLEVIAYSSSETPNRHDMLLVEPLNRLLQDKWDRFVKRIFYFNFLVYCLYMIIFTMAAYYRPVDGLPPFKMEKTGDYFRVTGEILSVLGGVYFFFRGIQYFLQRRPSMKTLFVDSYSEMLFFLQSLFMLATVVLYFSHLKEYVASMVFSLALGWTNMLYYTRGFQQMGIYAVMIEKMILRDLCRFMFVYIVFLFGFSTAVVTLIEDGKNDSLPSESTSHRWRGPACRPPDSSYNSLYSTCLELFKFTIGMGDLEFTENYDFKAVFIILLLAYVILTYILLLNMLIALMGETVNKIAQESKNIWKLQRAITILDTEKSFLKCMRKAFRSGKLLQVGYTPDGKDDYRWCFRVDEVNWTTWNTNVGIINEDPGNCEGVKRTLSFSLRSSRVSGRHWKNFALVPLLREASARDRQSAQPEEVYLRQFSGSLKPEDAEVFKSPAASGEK
#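 Fluo-8 calcium influx in TRPV1-expressing cells, kinetic read (ex 480/em 520 nm). Compound added and read 3 min for agonist activity, followed by capsaicin at EC20 final and 2 min further read for enhancement.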
# ClpP mod: qHTS Assay for Activators of ClpP | ATP-dependent Clp protease proteolytic subunit (Bacillus subtilis (strain 168)), P80244 | purified B. subtilis ClpP, FRET peptide cleavage, 20 min | Potency, µM (series often up to 57.5 µM), for inactives: top-dose activity change, negative = active | hit rate 1.9% among 340,000; active = well fitted falling curve with a large enough effect; inconclusive = small, poorly fitted or top-dose-only effect; inactive = no such curve, though single readings can be large or run the other way; note: potency is the fitted concentration of half-maximal effect; the source files actives as falling curves though it sought activators and does not explain the sign; nearly all actives have a fitted effect of over 65% in size; many hits overshoot -100%
# Target sequence (P80244 whole entry, looked up): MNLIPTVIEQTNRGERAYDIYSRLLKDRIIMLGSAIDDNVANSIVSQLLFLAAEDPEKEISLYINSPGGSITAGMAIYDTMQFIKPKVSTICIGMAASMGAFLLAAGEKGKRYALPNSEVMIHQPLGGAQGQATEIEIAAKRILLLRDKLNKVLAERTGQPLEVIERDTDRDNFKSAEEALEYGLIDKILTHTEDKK
#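 Purified B. subtilis ClpP, 10 microg/mL final in Tris/HCl pH8 with KCl, BSA, glycerol and Tween-20, cleaved an Abz/nitrotyrosine-quenched decapeptide. Fluorescence (ex 320, em 430) was read at 0 and 20 min at room temperature. Delta was normalized to 5.8 microM ADEP and DMSO/no-enzyme controls.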
# D2 PAM: human D2 receptor positive allosteric modulation; potentiation, % (concentration not given with the values); hit rate 0.23% among 360,000; AID 624464; DiscoveRx D2 beta-arrestin cells, luminescence, 90 min; 100% = 57 uM dopamine signal; active = potentiation of 50% or more; inconclusive = 30% to 50%; inactive = 30% or less;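 note: compound concentration not given in the record; tested on top of an EC20 dose of dopamine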
#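 D2 cells co-treated with compound plus 50 nM dopamine (EC20) for 90 min at 37 deg C to detect potentiation. Beta-arrestin recruitment was read as enzyme-fragment luminescence after 1 h at ambient temperature. Full response was set by 57 uM dopamine.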
# gsp agonist: agonists of gsp mutant (McCune-Albright syndrome); gsp mutant cells, cAMP HTRF, 30 min; control for the full effect not named in the record; Potency, µM (series often up to 76.9 µM), without a hit: at the highest dose activation (cAMP increase), actives largely listed as activators; hit rate 0.13% among 340,000; AID 624287; active = well fitted activation curve with a large enough effect; inconclusive = small, poorly fitted or top-dose-only effect, or another doubt; inactive = no such curve, though single readings can be large or run the other way; cell line not stated here;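 note: phosphodiesterase inhibitor Ro 20-1724 added with compounds to block cAMP breakdown; potency is the fitted concentration of half-maximal effect; nearly all actives have a fitted effect of over 60% in size; about a fifth of the inactives were tested at one dose only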
#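 Cells stably selected in G418 were plated at 2000/well, grown 16-24 hr, then given compounds in DMSO with the PDE inhibitor […] (300 uM solution added) for 30 min at 37C; cAMP was read by HTRF.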
# gsp antagonist: gsp mutant antagonism | AID 624288 | Potency, µM (highest dose often 76.9 µM), for the others: at the top dose activity change, negative = inhibition, usual class: inhibitors | hit rate 0.4% among 340,000 | gsp-mutant cells, cAMP HTRF, 30 min; control for the full effect not named in the record; active = falling curve of any shape with a large fitted effect; inconclusive = falling curve, mostly with a smaller effect; inactive = flat or rising curve; cell line not stated here;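 note: intracellular cAMP measured with PDE inhibitor Ro 20-1724 present during compound exposure; potency is the fitted concentration of half-maximal effect; % is set by controls: 0 for no effect and ±100 for the full control effect; nearly all actives have a fitted effect of over 65% in size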
#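 Cells in G418 medium, seeded 16-24 h, 37C; buffer exchange to DPBS + 1 mM CaCl2, 0.5 mM MgCl2, 0.05% BSA; cpds in DMSO + […] (300 uM stock), 30 min 37C; HTRF cAMP detection.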
# Menin MLL FP FL: displaces fluorescein MLL peptide from human menin. Fluorescence polarization, fluorescein-MLL peptide displacement from menin. 290,000 tested, under 10 active. FP activity change, % at 61.4 µM; inconclusive = falling polarisation curve, or a change in total fluorescence; inactive = total fluorescence flat and polarisation flat or rising; no compound was filed as active; the % refers to the polarisation; negative = inhibition;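 note: % of control where 0% means no effect; inhibitors lower the polarisation; unlabelled MLL peptide was the positive control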
# Sfp inh: blocks B. subtilis Sfp PPTase activity | Q9F4F7 | Biochemical Sfp PPTase activity, qHTS | Potency, µM, without a hit: max response, negative = inhibition, actives largely listed as inhibitors | hit rate 3.5% among 310,000; active = well fitted inhibition curve with a large enough effect; inconclusive = small, poorly fitted or top-dose-only effect, or another doubt; inactive = no such curve, though single readings can be large or run the other way;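 note: the enzyme is Sfp with the accession as filed and its product quenches rhodamine fluorescence; potency is the fitted concentration of half-maximal effect; 0% = enzyme reaction without inhibitor and -100% = no enzyme wells; top concentration of the series not given in the record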
#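 Buffer: 50 mM Hepes-Na pH 7.6, 10 mM MgCl2, 0.01% Nonidet P-40, 0.01% BSA. Enzyme 15 nM, pre-exposed to compound 15 min; substrates then added and fluorescence change tracked over 30 min.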
# Starred values were filed as active, the others as inactive; ? = inconclusive; nt = not tested or not shown; & = joins results of further samples; ! = not active in a repeat; [ ] = remark or other dose.
# Values run as follows: D2 PAM	ClpP mod	Sfp inh	Menin MLL FP FL	TRPV1 potentiator	gsp antagonist	gsp agonist
- Cc1ccc(C)c(S(=O)(=O)N2CCN(C(=O)c3ccc(C)s3)CC2)c1
  27	-1.7%	-1%	nt	-16	-15%	-42%[inhibitor]
- CN(CC(=O)NCCc1ccc(F)cc1)CC(=O)Nc1ccc(F)c(F)c1F
  5	-3.8%	nt	nt	-13	4%	4%
- CCN(CC)S(=O)(=O)c1ccc(NS(=O)(=O)c2ccc3oc(=O)[nH]c3c2)cc1
  -6	nt	3%	-9.2	8	11%	-10%
- COc1ccc(NC(=O)Cc2nnc(SCC(=O)NC3=NCCS3)n2C)cc1
  0	nt	2%	0.8	1	22%	-7%[15.4 µM]
- CCOc1ccc(/C(CCC(=O)O)=N/NC(=S)NC(C)C)cc1
  -3	-0.2%	35µM*	-1.4	6	-5%	9%[15.4 µM]
- COc1ccc(Cc2c(N)nc(C)nc2N)cc1
  -7	nt	11%	3.9	?	4%	-18%
- O=C(Nc1ccc(N2CCN(C(=O)c3ccco3)CC2)cc1)c1ccccc1Br
  -3	0.2%	13%	nt	-1	-14%	4%
- Cc1ccc(O)c(NC(=O)c2noc(C(C)C)c2[N+](=O)[O-])c1
  -1	0.7%	-1%	-3.5	-14	1%	-7%
- Cc1ccc(N)cc1-n1c(C)ccc1C
  -3	-0.1%	3%	0.0	-21	-7%	3%
- O=C(Cn1c(CO)nc2ccccc21)Nc1ccccc1Cl
  -1	-0.7%	1%	-0.2	2	1%	-112%[inhibitor]
- COc1cc(C2c3[nH]c4ccccc4c3CCN2Cc2cn(C)nc2C)ccc1F (stereo not given)
  2	nt	-9%	-2.5	-18	-8%	-4%
- CN1/C(=C\C=C2/SC(=S)N(CC(=O)O)C2=O)C(C)(C)c2ccccc21
  -27	nt	22µM*	?	-5	-25%	-57%[15.4 µM]
- O=C1CC(c2cccc(Br)c2)C2=C(COC2=O)N1 (stereo not given)
  -1	nt	17%	-0.8	5	0%	-2%[15.4 µM]
- Fc1cc(F)c(NC(=S)N2CCOCC2)c(F)c1
  -2	-2.2%	3%	-3.9	2	-9%	10%[15.4 µM]
- COc1ccccc1CCNS(=O)(=O)c1ccc(C(=O)O)n1C
  0	nt	17%	0.5	-1	17%	12%[15.4 µM]
- C/C(=N\NC(=S)NC1CCCCC1)c1ccc(C#N)cc1
  2	-1.3%	5%	0.0	3	-11%	23%[15.4 µM]
- COc1cc(CNCc2cc(OC)c(OC)c(OC)c2)cc(OC)c1
  -3	-0.5%	-21%	-0.2	11	-20%	8%
- CCCCN(C(=O)c1ccc([N+](=O)[O-])o1)c1c(N)n(CCCC)c(=O)[nH]c1=O
  27	1.2%	nt	nt	8	11%	5%
- O=C(NC(=O)N1CCOCC1)c1ccccc1
  -12	0.6%	-1%	5.2	0	8%	-13%
- CCCCc1ccc(NC(=S)N2CCN(C(=O)c3ccco3)CC2)cc1
  1	-2.5%	-4%	nt	-6	-5%	-30%
- Cc1ccc2c(c1)CCCN2C(=O)Nc1ccc2c(c1)OCO2
  29	-0.5%	3.2µM*	-0.6	-21	-12%	?
- CCOc1ccc2nc(/N=C/c3nc(-c4ccc(Br)cc4)oc3O)sc2c1
  -7	0.3%	?	?	12	2%	0%
- COCCCn1c(SCc2cccc(OC)c2)nc2cc(OC)c(OC)cc2c1=N
  -10	?	-25%	5.4	-4	1%	13%
- O=C(CCN1C(=O)c2cccc([N+](=O)[O-])c2C1=O)NC1CCCCCC1
  -13	-1.3%	nt	nt	nt	-14%	9%[15.4 µM]
- CCCc1cc(=O)[nH]c(SCC(=O)NCCN2C(=O)CSC2=O)n1
  -1	-1.3%	nt	nt	nt	10%	-7%
- CCOC(=O)c1c(-c2ccccc2)csc1NC(=O)c1ccc(S(=O)(=O)N2CC(C)OC(C)C2)cc1 (stereo not given)
  2	?	0%	2.7	17	-4%	1%
- CCOc1c(Cl)cc(CNc2nnnn2C)cc1OC
  -6	nt	28%	-1.0	3	-4%	16%
- CC1(C)CC(=O)C(C(c2ccccc2F)C2C(=O)CC(C)(C)CC2=O)C(=O)C1
  1	1.2%	-26%	-0.2	3	5%	?
- Cc1ccc(C(=O)Nc2ccc(N3CCOCC3)nc2N2CCOCC2)cc1
  2	nt	7%	-2.6	-8	-21%	-3%[15.4 µM]
- Cc1cccc(C)c1-n1cccc1/C=C1\SC(=S)N(c2cccc(C(=O)O)c2)C1=O
  -30	nt	40µM*	14	-11	nt	5%[15.4 µM]
- COc1ccc(S(=O)(=O)N2CCOCC2)cc1NC(=O)CCCOc1ccccc1
  -5	0.7%	nt	nt	nt	6%	-2%
- COc1ccc(NC(=O)CSc2nnc(-c3cnccn3)n2C)cc1OC
  -5	-1.3%	3%	-11	3	3%	-54%[inhibitor]
- Cc1ccc(OCC(=O)N2N=C(C(F)(F)F)CC2(O)C(C)(C)C)cc1C (stereo not given)
  -1	2.2%	9%	-2.0	-4	-20%	?
- O=C(CCn1nc(-c2ccc(Cl)cc2)c2ccccc2c1=O)NN1CCOCC1
  16	-2.2%	10%	4.8	18	-2%	19%[15.4 µM]
- N#C/C(=C/c1ccccc1[N+](=O)[O-])c1nnc2n1CCCCC2
  -3	-1.5%	4%	3.2	-1	3%	0%
- Clc1ccccc1C1CC(c2ccccc2)Nc2ncnn21 (stereo not given)
  -2	1.4%	24%	1.9	0	-11%	-29%
- CC1CCN(Cc2c(C(=O)N/N=C/c3ccc(C(C)(C)C)cc3)nnn2-c2nonc2N)CC1
  -1	27%	20%	-0.1	?	-10%	3%
- O=C(N1CCc2cc(S(=O)(=O)NC[C@H]3O[C@@H](n4ccc(=O)[nH]c4=O)[C@H](O)[C@@H]3O)ccc2C1)C(F)(F)F
  -1	-0.2%	nt	nt	nt	9%	nt
- O=C(COC(=O)C1(c2ccc(F)cc2)CCCC1)N1CCNC1=O
  -2	-1.1%	nt	nt	-25	8%	13%
- CCn1cnc2c1c(=O)n(CC(=O)OC(C)C(N)=O)c(=O)n2Cc1ccccc1 (stereo not given)
  -7	-3.0%	8%	nt	15	3%	-1%
- CCN(C(=S)NC(=O)Cc1ccc(OC)cc1)c1ccccc1
  0	nt	nt	nt	nt	0%	3%
- Cc1ccc(/C=N/n2c(-c3ccccc3)n[nH]c2=S)cc1
  -4	-3.6%	-1%	2.5	1	-14%	-32%[inhibitor]
- CC(Oc1ccc(F)cc1F)C(=O)NNC(=S)NCC1CCCO1 (stereo not given)
  -10	2.4%	10%	nt	11	4%	24%
- CCSc1ccc([C@@H]2[C@@H]3C(=O)N(C)C(=O)[C@@H]3[C@]3(C(=O)OC)CCCCN23)cc1OC
  -4	1.0%	nt	nt	nt	-12%	-4%
- O=C(Cn1nnc(-c2ccccc2Cl)n1)N/N=C/c1ccc(-c2cccc(Cl)c2)o1
  -14	93%	3%	5.6	-2	-5%	?
- CCn1nc(C)c(C(=O)Nc2cc(Oc3ccc(Cl)cc3)cc([N+](=O)[O-])c2)c1C
  1	1.1%	3%	0.5	6	-2%	-27%
- Oc1c(I)cc(I)c2cccnc12
  -9	-0.1%	50µM*!	-0.9&1.8	4	6%	nt
- O=C(NC(=S)Nc1ccc2oc(=O)ccc2c1)c1ccc(-c2cccc(Cl)c2Cl)o1
  nt	nt	79µM*	2.4	1	nt	nt
- Cc1cccc(CC(C)NC(=O)c2cc(COc3ccc(C)c(C)c3)on2)n1 (stereo not given)
  4	0.3%	-10%	2.5	-16	?	-20%
- O=C(NN1C(=O)C2C(c3ccccc3)C=CC(c3ccccc3)C2C1=O)c1cccc(Br)c1 (stereo not given)
  -20	-2.8%	39%[activator]	-1.6	?	-16%	-11%
- O=c1[nH]cnc2sc3c(c12)CCC3
  -9	nt	13%	-0.4	1	13%	?
- COc1ccc(NC(=O)COC(=O)C(CC(C)C)N2C(=O)C3CC=CCC3C2=O)cc1Cl (stereo not given)
  -6	-1.4%	26%	10	-7	8%	7%[15.4 µM]
- Cn1ncc2c(Nc3cccc([N+](=O)[O-])c3)ncnc21
  -11	-1.8%	-6%	0.4	6	0%	28%
- CCOC(=O)C1=C(C)Nc2nnnn2C1c1ccccc1Cl (stereo not given)
  4	-2.0%	-7%	-0.6	1	-12%	-20%
- CCCCCCCNC(=O)C1(CC2CC(c3cccc(Br)c3)=NO2)CCN(C(=O)c2cc(OCC)c(OCC)c(OCC)c2)CC1 (stereo not given)
  -2	-2.6%	nt	nt	-8	1%	-4%
- CCOC(=O)N1CCN(c2cc(=O)n(-c3ccccc3C)c(=O)[nH]2)CC1
  -7	0.7%	-4%	-3.4	-14	8%	0%
- O=C(CCl)N(c1ccccc1)c1ccccc1
  -1	nt	4%	2.0	-1	-17%	-1%[15.4 µM]
- CC(C)CNC(=O)c1ccc(Cl)c(NC(=O)COc2ccccc2)c1
  nt	nt	10%	-8.5	-14	nt	nt
- CC1Cc2ccccc2N1Cc1nc2cc(Cl)ccc2c(=O)[nH]1 (stereo not given)
  -15	13µM*	-4%	6.4	6	0%	-1%
- CC(=O)Nc1cc([N+](=O)[O-])ccc1N1CCOCC1
  -1	nt	3%	-6.6	1	2%	3%[15.4 µM]

# The list continues.
# Values run as follows: D2 PAM	ClpP mod	Sfp inh	Menin MLL FP FL	TRPV1 potentiator	gsp antagonist	gsp agonist
- Cc1cc(C)c(S(=O)(=O)O)c(C)n1
  1	-5.1%	10%	0.6	15	-4%	?
- COc1ccc(CCNC(=O)COC(=O)CCC(=O)c2ccc(F)cc2)cc1OC
  -6	32µM*	14%	0.0	-2	1%	0%[15.4 µM]
- O=C(CCc1nnc(CCCCc2ccccc2)o1)NCc1cc(F)ccc1F
  -5	nt	-9%	0.6	-7	?	16%[15.4 µM]
- CC1CC(C)CN(CCCn2c(=S)[nH]c3ccccc3c2=O)C1 (stereo not given)
  -37	-1.1%	4%	2.5	4	5%	34%
- COc1cc(-c2nnc(NC(=O)CS(=O)(=O)c3ccc(F)cc3)o2)cc(OC)c1OC
  -5	-1.3%	nt	nt	-3	-2%	12%
- CCc1ccccc1NC(=O)CCS(=O)(=O)c1ccc(C)cc1
  -6	0.6%	13%	6.3	-6	20%	-39%[inhibitor]
- O=c1[nH][nH]c(=O)c2c(NS(=O)(=O)c3ccccc3)cccc12
  -2	nt	9%	0.5	2	-13%	-8%[15.4 µM]

# From PubChem
